# Rango-impB inh – qHTS Assay for Inhibitors of Rango (Ran-regulated importin-beta cargo) - Importin beta complex formation. Importin subunit beta-1 (Homo sapiens), Q14974. Rango CFP/YFP FRET sensor + importin beta, 45 min. Potency, µM (series often up to 92.2 µM), inactives show top-dose inhibition of complex formation. hit rate 0.031% among 340,000; active = rising FRET ratio curve, often small or poorly fitted; inconclusive = mostly compound fluorescence or quenching in the first reads; inactive = flat curves in all reads;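 note: potency is the fitted concentration of half-maximal effect; 0% = DMSO wells and 100% = buffer wells lacking importin beta; nearly all actives have a fitted effect of over 15% in size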
# Target sequence (Q14974 whole entry, looked up): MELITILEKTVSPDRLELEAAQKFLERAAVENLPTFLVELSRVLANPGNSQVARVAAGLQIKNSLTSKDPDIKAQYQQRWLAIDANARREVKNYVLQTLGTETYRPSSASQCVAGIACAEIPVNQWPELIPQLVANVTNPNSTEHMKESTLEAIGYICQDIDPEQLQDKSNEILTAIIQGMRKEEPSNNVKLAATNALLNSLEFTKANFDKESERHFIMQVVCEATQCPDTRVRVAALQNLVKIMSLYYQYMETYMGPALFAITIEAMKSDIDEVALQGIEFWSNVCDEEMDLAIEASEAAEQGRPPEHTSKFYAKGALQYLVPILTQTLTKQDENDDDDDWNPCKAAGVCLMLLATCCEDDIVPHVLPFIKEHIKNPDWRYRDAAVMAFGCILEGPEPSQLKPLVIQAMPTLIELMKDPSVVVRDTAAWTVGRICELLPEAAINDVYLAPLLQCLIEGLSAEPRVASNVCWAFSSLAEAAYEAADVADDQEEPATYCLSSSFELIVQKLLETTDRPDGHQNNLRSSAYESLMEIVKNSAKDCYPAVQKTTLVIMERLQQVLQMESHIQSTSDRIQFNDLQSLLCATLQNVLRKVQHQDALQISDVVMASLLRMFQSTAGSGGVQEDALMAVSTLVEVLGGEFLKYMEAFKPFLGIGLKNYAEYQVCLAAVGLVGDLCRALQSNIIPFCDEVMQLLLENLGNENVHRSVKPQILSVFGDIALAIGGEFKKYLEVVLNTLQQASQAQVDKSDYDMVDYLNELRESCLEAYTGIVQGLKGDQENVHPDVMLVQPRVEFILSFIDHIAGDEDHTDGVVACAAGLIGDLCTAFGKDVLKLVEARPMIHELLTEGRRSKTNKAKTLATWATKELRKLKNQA
#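 FRET biosensor (snurportin 1 IBB flanked by EYFP and cerulean), 50 nM, with compound 5 min, then 0.125 microM importin beta in PBS, 1 mM DTT, 0.02% Tween-20, 0.1% BSA. CFP/YFP ratio read after 45 min at room temperature; pre-read flags interference.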
# GLA inh pH 4.5 – qHTS Assay for Inhibitors of Human alpha-Galactosidase at pH 4.5 | Alpha-galactosidase A (Homo sapiens), P06280 | purified enzyme, 4-MU-alpha-Gal fluorescence, pH 4.5 | activity change, negative = inhibition, % at 105 µM | 230,000 tested, under 10 active; inconclusive = small, poorly fitted or top-dose-only inhibition, or a rising curve; inactive = flat fitted curve, though single readings scatter; no compound was filed as active;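 note: 0% = full activity with enzyme and -100% = basal without enzyme; dose as in the result columns while the protocol names 77 µM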
# miR-21 FLuc – qHTS Assay for Modulators of miRNAs and/orActivators of miR-21 | HeLa miR-21 FLuc reporter, luciferase, 48 h | 340,000 tested, under 10 active | Potency, µM (series often up to 38.3 µM), for the others: at the highest dose reporter change, positive = more light | AID 2288, 2010; active = well fitted rising curve with a large enough effect; inconclusive = small, poorly fitted or top-dose-only effect; inactive = no such curve, though single readings can be large or run the other way;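 note: % of control where 0% means no effect; miR-21 action dims this reporter so a rising signal means less miR-21 action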
#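 HeLa cells endogenously expressing miR-21, stably carrying CMV-driven firefly luciferase with a downstream miR-21 binding site, 2000 cells/well. Titrations up to approximately 40 uM, 48 hours; luciferase luminescence read.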
# Rango dissoc inh – qHTS Assay for Inhibitors of RanGTP induced Rango (Ran-regulated importin-beta cargo) - Importin beta complex dissociation; Snurportin-1 (Homo sapiens) + GTP-binding nuclear protein Ran (Homo sapiens) + Importin …; Biochemical FRET Rango-importin beta, RanGTP-induced dissociation; Potency, µM (series often up to 46.1 µM), inactives show at the top dose activity change, negative = inhibition; hit rate 0.071% among 340,000; AID 540253, 2011; active means falling FRET ratio curve, often poorly fitted, with flat reads before Ran was added; inconclusive means other falling curves, or compound fluorescence or quenching; inactive means flat or rising ratio curve;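 note: potency is the fitted concentration of half-maximal effect; % of control where 0% means no effect; nearly all actives have a fitted effect of over 45% in size; -100% = wells without RanGTP and RCC1; the record marks most hits as doubtful in a second field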
#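 FRET read at 45 min, room temperature: inhibitors block the CFP/YFP signal rise when RanGTP (0.6 uM Ran, 2 mM GTP, 0.2 uM RCC1) frees Rango (0.1 uM) from importin beta (0.25 uM). Pre-read after 5 min compound exposure flags interference.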
# An asterisk follows results filed as active; ? = inconclusive; nt = no result given. The list is partial. The share of hits here may be higher or lower than overall.
Rango-impB inh	GLA inh pH 4.5	miR-21 FLuc	Rango dissoc inh	structure
-0.9%	1	-16%	0%	COc1ccc(/C=C/C(=O)NC(=S)NN2CCCCC2c2cccnc2)cc1 (stereo not given)
-0.1%	nt	-10%	5%	N#Cc1ccc(CSc2nc(N)cc(N)n2)cc1
-1.9%	nt	nt	12%	CCCCNC(=O)N(O)C1N(/N=C/c2ccco2)C(=S)SC1(C)C (stereo not given)
?	nt	nt	?	O=C(NCc1ccc(F)cc1)c1cccc2c1C(=O)c1ccc(N3CCOCC3)cc1S2(=O)=O
-0.1%	12	-11%	-2%	CCCCNC(=O)C1(NC(=O)Nc2ccc(C)cc2)CCCCC1
3.8%	-5	-8%	12%	O=C(CSc1nc2ccccc2s1)N/N=C/c1ccco1
-0.1%	nt	nt	21%	COCCCNC(=O)CC1C[C@H](C(=O)N(C(C)C)C(C)C)[C@@]2(C)c3[nH]c4ccccc4c3CCN2C1=O (stereo not given in full)
-0.4%	-1	2%	1%	N#C/C(=N\Nc1cc(Cl)cc(Cl)c1)c1nnc2n1CCCCC2
0.0%	nt	-35%	-18%	O=C(c1cc(-c2ccc(Cl)c(Cl)c2)on1)N1CCOCC1
0.5%	nt	nt	1%	O=c1ccc(-c2ccccc2)nn1Cc1ccccc1
-3.0%	-15	-6%	-12%	O=C(COC(=O)C1(c2ccc(F)cc2)CCCC1)N1CCc2ccccc21
1.4%	-5	-9%	8%	Cc1cc(Br)ccc1OCCCCNC(C)(C)C
?	11	-28%	?	CCCSc1nc(N)c2c3c(sc2n1)CN(C)CC3
0.5%	-1	18%	0%	O=C1c2ccccc2N2C(=O)c3ccccc3C2N1Cc1ccccc1 (stereo not given)
-4.3%	-1	-43%	-4%	Cc1cccc2c(=O)c(C(=O)N3CCCCCC3)c[nH]c12
-0.7%	nt	nt	-3%	CN(C(=O)COC(=O)COc1ccccc1Cc1ccccc1)c1ccccc1
0.4%	-3	-2%	-1%	Nc1c(C(=O)O)cnn1-c1ccccc1
-0.8%	nt	nt	-24%	Cc1ccc2c(c1)C1C[N+](C)(CC(=O)c3ccccc3)CCC1N2C(=O)c1ccccc1Cl (stereo not given)
?	nt	nt	-1%	COc1ccc(-c2oc(=O)c3cc(OC)c(OC)cc3c2/C=C/c2ccc(OC(C)=O)cc2)cc1
-1.6%	3	-1%	10%	COC(=O)Nc1ccc(S(=O)(=O)N2CCN(C)CC2)cc1
-3.9%	nt	1%	-17%	O=C1NC2(CCCCC2)CO1
-2.8%	14	-6%	3%	CNC(=S)NNC(=O)c1ccc(=O)n(Cc2cccc(C(F)(F)F)c2)c1
nt	7	0%	nt	CCCN1C(=O)/C(=C\C=C2/Sc3ccccc3N2CC)SC1=S
2.4%	13	-42%	7%	Clc1ccc(-c2ccn[nH]2)cc1
-1.2%	nt	9%	0%	O=C(c1cc2cc(Cl)ccc2[nH]1)N1CCN(Cc2ccc3c(c2)OCO3)CC1
?	-2	-5%	3%	CCOC(=O)C(C)S(=O)(=O)c1ccc(C(F)(F)F)cn1 (stereo not given)
?	-2	?	?	CC(C)=CCc1c(O)cc2oc3c(CC=C(C)C)c(O)c(O)c(CC=C(C)C)c3c(=O)c2c1O
-1.5%	nt	6%	-3%	Cc1cc(S(=O)(=O)N2CCCC(N3CCOCC3)C2)c(C)cc1Cl (stereo not given)
0.1%	-2	-6%	-5%	CCOC(=O)c1c(-c2ccc(Cl)cc2)csc1NC(=O)CNCc1ccco1
1.0%	nt	6%	5%	N#Cc1ccccc1NC(=O)CN1CCOCC1
-0.2%	3	-41%	0%	O=C(c1cnn(-c2nc3ccccc3s2)c1)c1ccccc1O
-4.7%	nt	nt	18%	CCOC(=O)C1CCCCN1C(=O)c1cc2ccc(OC)cc2c2cc(OC)c(OC)cc12 (stereo not given)
-2.4%	-4	6%	-2%	COc1ccccc1N1CCN(C(=O)CSc2nnc(-c3ccoc3C)o2)CC1
-4.7%	-5	-7%	-3%	CC(OC(=O)Cc1coc2cc3c(cc12)CCC3)C(=O)NC(N)=O (stereo not given)
2.9%	-12	1%	-20%	CCCC(=O)C1=C(O)C(C(=O)OC)C(C)(C)CC1=NCCCCCC(=O)O (stereo not given)
-0.4%	-5	1%	19%	CCCC(=O)NNC(=O)c1c(O)c2ccccc2[nH]c1=O

# No new results follow: an excerpt of the list.
Rango-impB inh	GLA inh pH 4.5	miR-21 FLuc	Rango dissoc inh	structure
-4.7%	nt	nt	18%	CCOC(=O)C1CCCCN1C(=O)c1cc2ccc(OC)cc2c2cc(OC)c(OC)cc12 (stereo not given)
-2.4%	-4	6%	-2%	COc1ccccc1N1CCN(C(=O)CSc2nnc(-c3ccoc3C)o2)CC1
-4.7%	-5	-7%	-3%	CC(OC(=O)Cc1coc2cc3c(cc12)CCC3)C(=O)NC(N)=O (stereo not given)
2.9%	-12	1%	-20%	CCCC(=O)C1=C(O)C(C(=O)OC)C(C)(C)CC1=NCCCCCC(=O)O (stereo not given)
-0.4%	-5	1%	19%	CCCC(=O)NNC(=O)c1c(O)c2ccccc2[nH]c1=O

# Continued:
Rango-impB inh	GLA inh pH 4.5	miR-21 FLuc	Rango dissoc inh	structure
0.7%	nt	-3%	3%	CC(Oc1ccccc1F)C(=O)NC1CCS(=O)(=O)C1 (stereo not given)
3.9%	nt	nt	-12%	O=C(NC1CC1)C1=C[C@@H](c2ccc(C(F)(F)F)cc2)C[C@@H](OCCCCO)O1
-1.0%	nt	-1%	-16%	COc1ccc(S(=O)(=O)N(CC(=O)NC2CC2)Cc2ccccc2)cc1
-1.9%	2	-8%	19%	S=c1[nH]nc(COc2ccccc2)n1/N=C/c1ccc(Br)s1
-0.2%	-2	-2%	-3%	O=C(COC(=O)C1CCN(S(=O)(=O)c2cccs2)CC1)c1ccc2c(c1)OCCO2
1.9%	-2	-4%	1%	Clc1cccc(Cl)c1Cn1cc(Br)cn1
-1.7%	nt	nt	-5%	CCOc1ccc(NS(=O)(=O)c2cc(C(=O)NCCCN3CCCC3=O)ccc2C)cc1
-2.4%	nt	-20%	1%	O=C(NCCc1cccc(Cl)c1)c1ccc2c(c1)OCO2
nt	-2	4%	nt	CCN(CC)S(=O)(=O)c1ccc(Cl)c(C(=O)Nc2cc(C)nn2-c2ccccc2C(F)(F)F)c1
1.7%	5	-43%	-9%	Cc1ccc(OCCSc2cc(C)nc(N)n2)cc1
?	-18	-55%	3%	COC(=O)CCC(=O)N1CCCC(CO)(Cc2ccccc2)C1 (stereo not given)
-1.0%	12	1%	-16%	COc1ccc(NC(=O)CN2C(=O)CSC(C)C2=O)cc1 (stereo not given)

# Arranged by SMILES length (rising): some entries from above.
Rango-impB inh	GLA inh pH 4.5	miR-21 FLuc	Rango dissoc inh	structure
1.9%	-2	-4%	1%	Clc1cccc(Cl)c1Cn1cc(Br)cn1
-1.9%	2	-8%	19%	S=c1[nH]nc(COc2ccccc2)n1/N=C/c1ccc(Br)s1
-1.0%	nt	-1%	-16%	COc1ccc(S(=O)(=O)N(CC(=O)NC2CC2)Cc2ccccc2)cc1
-0.2%	-2	-2%	-3%	O=C(COC(=O)C1CCN(S(=O)(=O)c2cccs2)CC1)c1ccc2c(c1)OCCO2
3.9%	nt	nt	-12%	O=C(NC1CC1)C1=C[C@@H](c2ccc(C(F)(F)F)cc2)C[C@@H](OCCCCO)O1

# The results go on:
Rango-impB inh	GLA inh pH 4.5	miR-21 FLuc	Rango dissoc inh	structure
?	-7	?	-12%	CCN(CC)c1ccc(/C=N/Nc2nc(C)cc(C)n2)cc1
-5.8%	nt	-7%	5%	COc1ccccc1NC(=O)NNC(=O)COc1ccc2ccccc2c1
0.0%	-5	3%	-5%	O=C(NCc1ccccc1)C(c1ccc(F)cc1)N(Cc1ccco1)C(=O)c1ccccn1 (stereo not given)
-1.1%	8	14%	-2%	N#Cc1ccc(C(=O)CSc2n[nH]c(=O)n2Cc2ccco2)cc1
3.4%	5	-5%	-8%	CC(C)NC(=O)COc1ccc(Cl)cc1Cl
-0.1%	-23	-8%	3%	O=C(NCCN1CCCCCC1)C1CCC(CNS(=O)(=O)c2cccc3cccnc23)CC1 (stereo not given)
-4.6%	-1	-3%	11%	COc1ccc(CCNc2nc(-c3cccnc3)cs2)cc1OC
0.3%	8	2%	-10%	COCCN(C(=O)c1ccc2ccccc2c1)c1c(N)n(Cc2ccccc2)c(=O)[nH]c1=O
1.7%	nt	nt	-5%	CC(C)(C)NC(=O)C(c1ccc(-c2ccccc2)cc1)N(C[C@H]1CC[C@@H]([C@@H]2CC[C@H](CO)O2)O1)C(=O)c1ccc(C(C)(C)C)cc1 (stereo not given in full)
-2.4%	-22	-1%	12%	O=S(=O)(c1ccc(C2=CSC3=NCCN23)cc1)N1CCOCC1
5.7%	nt	-2%	9%	NC(=NCc1ccccc1)c1cccc([N+](=O)[O-])c1
4.4%	-25	-23%	1%	CN(C)c1ccc(C(=S)N2CCCCC2)cc1Br
-0.1%	1	-19%	7%	COC(=O)c1ccc(NC(=S)Nc2ccc3ccccc3c2)cc1
-3.4%	-8	4%	-17%	N#Cc1ccc(Oc2nc(C#N)cc(-c3ccccc3)n2)cc1
-4.8%	nt	nt	-3%	COc1ccc(NC(=O)Nc2ccc3c(c2)CC(=O)N([C@H](C)CO)C[C@H](C)[C@H](CN(C)Cc2ccc(C(=O)O)cc2)O3)cc1
1.3%	2	-20%	2%	O=C1OCC(CO)(CO)N=C1NNc1ccccc1Cl
nt	-1	-2%	nt	CCOC(=O)c1ccc(Cl)c(NC(=O)c2cccnc2)c1
0.0%	-1	-2%	-12%	O=C(NCc1ccc2c(c1)OCO2)C1CCN(S(=O)(=O)c2cccc3nsnc23)CC1
0.8%	nt	nt	0%	CCCCn1c(N)c(N(Cc2ccccc2)C(=O)COc2ccccc2F)c(=O)[nH]c1=O
0.2%	nt	1%	12%	COCCn1c(SCC(=O)N2CC(C)OC(C)C2)nc2c([nH]c3ccccc32)c1=O (stereo not given)
1.4%	nt	nt	10%	Cc1cccnc1NC(=O)c1ccc2c(c1)OCO2
4.3%	nt	-6%	0%	Cc1cc(NC(=O)Nc2ccccc2)n(C(C)(C)C)n1
1.9%	-2	0%	19%	O=C(NC1CCS(=O)(=O)C1)c1ccccc1C(=O)c1ccccc1 (stereo not given)
-1.5%	3	-7%	17%	COC(=O)CN(CCc1ccccc1)S(=O)(=O)c1ccc(OC)c(OC)c1
1.2%	nt	1%	-4%	Cc1[nH]c(=O)[nH]c(=O)c1S(=O)(=O)Nc1ccc(F)cc1F
-2.2%	0	-6%	9%	Cc1ccccc1S(=O)(=O)NCc1cccnc1
-0.3%	-16	-17%	19%	Cc1sc2nc(N)sc2c1C
-0.8%	2	-3%	8%	NC(=O)COC(=O)c1cccc(S(=O)(=O)N2CCN(c3ccc(F)cc3)CC2)c1
-3.8%	nt	nt	0%	COc1ccccc1C(=O)NCCC(=O)NCc1cccs1
9.7%	nt	nt	16%	COc1ccc(C(=O)OCC(=O)NC(=O)Nc2ccccc2F)c(OC)c1
5.4%	nt	-16%	12%	CCOc1ccc(C(=O)N2CCc3ccccc32)cc1OCC
2.4%	nt	24%	-14%	O=C(NCC1CCCO1)c1cc2c([nH]c3ccccc32)c(-c2ccc(F)cc2)n1 (stereo not given)
0.3%	-2	-22%	-1%	O=C(COc1ccc2ccccc2c1)Nc1ccc(S(=O)(=O)N2CCCCCC2)cc1
0.2%	1	-43%	12%	Cc1ccc(C(=O)Nc2cccc(Oc3ccccc3)c2)o1
1.7%	nt	nt	-5%	COc1cc(C(=O)NNC(=O)CN2C(=O)NC(C)(c3ccc(C)cc3)C2=O)cc(OC)c1OC (stereo not given)
2.2%	1	-67%	2%	Cc1cccc(NC(=O)c2ccc(OC3CSC3)cc2)c1
?	nt	-12%	-10%	O=C(c1cnn2c(C(F)(F)F)cc(-c3ccc(F)cc3)nc12)N1CCc2ccccc2C1
-2.0%	nt	-13%	-9%	O=C1CCC(C(=O)N2CCSCC2)CN1CCc1cccc(F)c1 (stereo not given)
